KCNQ2 inh: KCNQ2 potassium channel inhibitors, primary screen, cell-based, CHO-K1, FluxOR thallium flux, B-score (AID 2156). 20 min; active compounds read low; only compounds with negative scores are shown here; some inactives read as strong as hits. B-score at 10 µM. hit rate 1.1% among 310,000;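 active = fluorescence ratio B-score at most minus 3 library SDs, with starting brightness B-score within 2 library SDs, cut at about -5.5 in these data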
Target sequence (O88943 whole entry, looked up): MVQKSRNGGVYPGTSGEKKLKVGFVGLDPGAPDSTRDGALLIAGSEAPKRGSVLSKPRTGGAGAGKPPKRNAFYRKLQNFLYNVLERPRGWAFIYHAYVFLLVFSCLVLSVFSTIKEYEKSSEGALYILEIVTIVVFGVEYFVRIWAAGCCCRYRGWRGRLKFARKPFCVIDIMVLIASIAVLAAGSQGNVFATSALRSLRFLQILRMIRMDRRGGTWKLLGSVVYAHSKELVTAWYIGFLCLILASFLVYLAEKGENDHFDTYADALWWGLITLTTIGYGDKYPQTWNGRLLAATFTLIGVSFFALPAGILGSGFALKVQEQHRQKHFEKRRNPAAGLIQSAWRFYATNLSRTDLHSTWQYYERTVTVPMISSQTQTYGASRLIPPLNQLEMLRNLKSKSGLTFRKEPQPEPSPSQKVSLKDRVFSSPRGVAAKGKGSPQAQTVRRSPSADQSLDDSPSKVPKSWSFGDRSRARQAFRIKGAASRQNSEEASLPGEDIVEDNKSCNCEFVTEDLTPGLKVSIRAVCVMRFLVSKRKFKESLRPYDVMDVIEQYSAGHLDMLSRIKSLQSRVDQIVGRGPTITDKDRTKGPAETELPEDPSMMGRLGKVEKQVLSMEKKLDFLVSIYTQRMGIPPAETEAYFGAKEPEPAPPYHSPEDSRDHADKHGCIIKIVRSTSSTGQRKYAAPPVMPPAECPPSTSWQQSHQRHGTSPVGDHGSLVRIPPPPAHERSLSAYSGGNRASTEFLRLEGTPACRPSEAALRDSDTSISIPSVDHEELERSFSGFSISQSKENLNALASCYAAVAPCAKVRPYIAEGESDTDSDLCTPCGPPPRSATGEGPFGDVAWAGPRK
KCNQ2 inh baseline: second read-out of KCNQ2 inh, no call of its own (marks repeat the call); B-score; measured here: initial fluorescence intensity artifact check;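 brightness before thallium and not channel activity; 0 = typical well and far values either way flag optical interference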
Numbers without * were called inactive; i = inactive. An excerpt; count on the stated rates, not on these rows.

Order of results: KCNQ2 inh, KCNQ2 inh baseline
- COC(=O)Nc1ccc2c(c1)N(C(=O)CCN1CCN3CCCC3C1)c1ccccc1CC2 (stereo not drawn)
    i, 0.01
- COc1cccc(CNC(=O)C2CSC3(C)CCC(=O)N23)c1 (stereo not drawn)
    i, 1.9
- CC1CCCCN1CCNC(=O)C1CCN(S(=O)(=O)c2cccc3cccnc23)CC1 (stereo not drawn)
    i, 1.3
- CCC(C(=O)NC(C)(C)C)N(Cc1ccc(F)cc1)C(=O)c1snc(C(N)=O)c1N (stereo not drawn)
    i, -3
- CN1C(=O)[C@@H]2[C@@H]3C[C@@H]([C@H]4ON=C(c5ccc(Cl)cc5Cl)[C@@H]34)[C@@H]2C1=O
    i, -0.42
- O=C(c1cccc(F)c1)N1C2C=CC(C2)C1(C(F)(F)F)C(F)(F)F (stereo not drawn)
    i, -0.12
- O=C(NNc1nc2cc3c(cc2s1)OCCO3)c1ccccc1
    i, -1.6
- O=C(COc1ccc(Cl)cc1Cl)NN=C1CCCCC1
    i, -0.51
- CCc1ccccc1NC(=O)c1ccc(S(=O)(=O)NCC2CCCO2)cc1 (stereo not drawn)
    i, -0.69
- O=C(Nc1cccc(Cl)c1Cl)c1ccccc1OCC(=O)N1CCOCC1
    i, -1.1
- CS(=O)(=O)N(CC(=O)N1CCCCC1)c1ccc(Cl)c(C(F)(F)F)c1
    i, 0.6
- Cc1ccc2c(c1)c(C)c(C)n2CC(O)Cn1nc(C)c(Br)c1C (stereo not drawn)
    i, 0.63
- Cc1ccc(C)c(N2CCN(S(=O)(=O)c3c(C(=O)N4CCCCC4)c(C)n(C)c3C)CC2)c1
    i, -1.2
- COc1cccc2cc(C(=O)NCc3ccc(C)cc3)c(=N)oc12
    i, 0.01
- CCc1ccc(NC(=O)NC(C)c2ccc3c(c2)OCO3)cc1 (stereo not drawn)
    i, -0.61

Next section; the last 3 above are carried over.
Order of results: KCNQ2 inh, KCNQ2 inh baseline
- Cc1ccc(C)c(N2CCN(S(=O)(=O)c3c(C(=O)N4CCCCC4)c(C)n(C)c3C)CC2)c1
    i, -1.2
- COc1cccc2cc(C(=O)NCc3ccc(C)cc3)c(=N)oc12
    i, 0.01
- CCc1ccc(NC(=O)NC(C)c2ccc3c(c2)OCO3)cc1 (stereo not drawn)
    i, -0.61
- O=C1Nc2ccc(F)cc2C12Nc1ccccc1-c1nnc(SCc3ccccc3)nc1O2 (stereo not drawn)
    i, -0.04
- Cc1oc2c(C)c3oc(=O)c4c(c3cc2c1C)CCC4
    i, -0.06
- CCOP(=O)(OCC)C(NC(=O)c1cccs1)C(F)(F)F (stereo not drawn)
    i, 0.21
- COC(=O)COc1ccc(S(=O)(=O)N2CCN(c3ccccc3)CC2)cc1
    i, -0.67
- CCCCCCSc1nsc(N)n1
    i, 1.9
- COc1ccc(NC(=O)CSc2nc(SC)ns2)cc1
    i, -0.81
- c1ccc2[nH]c(NN=C3CCCCCC3)nc2c1
    i, 1.4
- CCC(C)NC(=O)CSc1nnc(-c2c[nH]c3ccccc23)o1 (stereo not drawn)
    i, 0.76
- Cc1cccc(N2CCN(C(=O)/C=C/c3cccs3)CC2)c1C
    i, 0.79
- Cn1cc(CN2CCN(c3ncccn3)CC2)c(-c2cccc(Cl)c2)n1
    i, -0.1
- Cc1ccc(S(=O)(=O)CCC(=O)Nc2cccc(C)c2)cc1
    i, 0.59
- COc1cccc(C2CC(=O)Nc3n[nH]c(-c4ccccc4)c32)c1OC (stereo not drawn)
    i, 0.68
- COc1ccc(NC(=O)c2ccccc2C)c(OC)c1
    i, -0.1
- O=[N+]([O-])c1ccc2c(c1)OCCOCCOCCOCCOCCOCCO2
    i, -0.78
- COc1ccc(N2C(=O)c3ccccc3NC2c2ccccc2O)cc1 (stereo not drawn)
    i, 0.32

Other compounds.
Order of results: KCNQ2 inh, KCNQ2 inh baseline
- COc1cc(OC)nc(Oc2ccccc2C(=O)Oc2ccc(F)cc2Cl)n1
    i, 0.12
- CCOC(=O)CN(C(=O)COc1ccc2c(C)cc(=O)oc2c1)c1ccc(OCC)cc1
    i, -0.16
- CN(Cc1cccnc1)C(=O)c1ccc2nc(Cc3ccccc3F)oc2c1
    i, -0.21
- CC(C)c1ccc(NC(=O)COC(=O)CSc2nnc(N)s2)cc1
    i, 1.2
- O=C(CSc1nc(O)cc(=O)[nH]1)N1c2ccccc2Sc2ccccc21
    i, -1.2
- COc1ccc(CNC(=O)CN2CCC(NC(=O)c3ccc(OC)cc3)CC2)cc1
    i, -1.9
- CCOC(=O)c1ccc(N2Cc3ccccc3C2)cc1O
    i, 0.21
- COc1ccc(OC)c(S(=O)(=O)N2CCCC(C(=O)N3CCCCCC3)C2)c1 (stereo not drawn)
    i, -0.47
- S=C(NCCc1ccccc1)N1CCN(Cc2ccccc2)CC1
    i, 0.12
- COC(=O)c1c(N2C(=O)[C@H]3[C@@H](C2=O)[C@]2(C(=O)Nc4c(C)cccc42)N2CCC[C@@H]32)sc(C)c1C
    i, 0.97
- CCC(Sc1nnnn1-c1ccccc1)C(=O)Nc1nc2ccccc2s1 (stereo not drawn)
    i, -0.65
- O=C(NC1CCC1)C1CCC(=O)N(Cc2ccccc2F)C1 (stereo not drawn)
    i, 1.2
- O=c1[nH]nc(SCc2ccccc2Cl)n1-c1ccc2c(c1)OCCO2
    i, 1.7
- CCOC(=O)C(C)Sc1ncnc2c1nnn2-c1ccc(F)cc1 (stereo not drawn)
    i, -0.36
- O=C(Nc1ccc(Oc2ncnc3cc(Cl)ccc23)nc1)c1ccc(F)cc1
    i, 1.6

Additional results follow:
Order of results: KCNQ2 inh, KCNQ2 inh baseline
- Cc1ccc2c(Cl)c(C(=O)Nc3cc(C)on3)sc2c1
    i, -0.99
- CCOC(=O)C1(Cc2ccccc2Cl)CCN(S(=O)(=O)N(C)C)CC1
    i, 0.29
- O=C(CN(Cc1ccco1)C(=O)c1cc(=O)[nH]c2ccccc12)Nc1ccccc1Br
    i, -0.53
- Cc1nn(-c2ccc(C(=O)O)cc2)c2c1C(=O)CC(C)(C)C2
    i, -0.01
- CC(C)(C)c1ccc(OCC(=O)Nc2ccc(C(=O)Nc3ccccc3C(=O)O)cc2)cc1
    i, -0.6
- CCC(Sc1nnnn1-c1ccccc1)C(=O)NC(C)c1ccccc1 (stereo not drawn)
    i, -0.99
- Cc1ccccc1C(=O)Nc1ccnn1C1CCN(CCCc2ccccc2)CC1
    i, 0.28
- COCCN(C(=O)COC(=O)c1c(NC(C)=O)sc(C)c1C)c1c(N)n(Cc2ccccc2)c(=O)[nH]c1=O
    i, -0.95
- Cc1nc(N2CCOCC2)nc(N2CCCC2)c1[N+](=O)[O-]
    i, -0.75
- Nc1nc(CCl)nc(Nc2cccc3ccccc23)n1
    i, 2.1
- Cc1cccc(OCc2nnc(SCc3cc(=O)n4cc(Br)ccc4n3)o2)c1
    i, 0.7
- O=C(NCCOCc1ccccc1)C(c1ccccc1)c1ccccc1
    i, 2.4
- CSc1nc2ccccc2cc1/C=C(\C#N)c1cccc(Cl)c1
    i, 0.32
- O=C(O[C@@H]1OC2COC(=O)c3cc(O)c(O)c(O)c3-c3c(cc(O)c(O)c3O)C(=O)O[C@@H]([C@H]1O)[C@@H]2O)c1cc(O)c(O)c(O)c1
    i, 1.3
- O=C(CCCCCN1C(=O)c2ccccc2C1=O)Nc1ccc(S(=O)(=O)N2CCCCC2)cc1
    i, 2.5

(continued)
Order of results: KCNQ2 inh, KCNQ2 inh baseline
- O=C(NCC1CCCCC1)c1ccc(F)cc1Cl
    i, 1.1
- CSCCC(NS(=O)(=O)c1ccc(Cl)cc1)C(=O)OCC(=O)N1CCOCC1 (stereo not drawn)
    i, -0.65
- COc1ccc(CCNC(=O)COC(=O)COc2ccc(C#N)cc2)cc1
    i, 0.03
- O=C(c1csc2ccccc12)N1CCN(c2ccc(Cl)c(Cl)c2)CC1
    i, -0.63
- CCc1cccc2sc(N(CCCN3CCOCC3)C(=O)CS(=O)(=O)c3ccccc3)nc12
    i, -0.97
- O=C(CNC(=O)Cc1ccccc1)NCC(=O)OCC(=O)c1ccc(Cl)cc1
    i, 1.6
- O=C(NC1CCCCCC1)C1CCCN(S(=O)(=O)c2cccs2)C1 (stereo not drawn)
    i, 0.41
- Cc1ccccc1Nc1nnc(C)c(=O)n1N
    i, 0.16
- Cc1ccc(S(=O)(=O)NCc2ccccc2)cc1C(=O)N(C)Cc1ccccc1F
    i, -0.14
- COc1ccc(C2CC(c3ccccc3)=NN2C(=O)c2cccs2)cc1 (stereo not drawn)
    i, -0.48
- Cc1ccc(NC(=O)CN(C)C(=O)Cc2c(Cl)cccc2Cl)cc1
    i, -0.8
- O=C(NCCN=C1NS(=O)(=O)c2ccccc21)c1ccccc1
    i, -0.49
- C/C=C(\C)CN1CCCC(CO)(Cc2ccccc2)C1 (stereo not drawn)
    i, -0.2
- CC1CCC2=NN(C(=O)c3ccco3)C(O)(C(F)(F)F)C2C1 (stereo not drawn)
    i, 0.66
- O=C(c1ccc(S(=O)(=O)c2cccc(Cl)c2)c([N+](=O)[O-])c1)N1CCN(Cc2ccccc2)CC1
    i, -2.4

Next part.
Order of results: KCNQ2 inh, KCNQ2 inh baseline
- Cc1ccc(S(=O)(=O)N2CCOC2CNC(=O)C(=O)NCCN(C)C)cc1 (stereo not drawn)
    i, 0.78
- Cc1ccsc1/C=N/NC(=O)c1cccnc1
    i, 2.8
- Cn1c(=O)cc(OCCCC(=O)N2CCCCC2)c2ccccc21
    i, 0.77
- Cc1ccc(S(=O)(=O)N(CC(=O)NCCSc2ccccn2)c2ccccc2F)cc1
    i, -1.4
- Fc1ccc(-c2nc3nc4ccccc4nc3n2Cc2ccco2)cc1
    i, 0.32
- CC1(C)CC(=O)C(N=Nc2cccnc2)=C(O)C1
    i, -0.68
- Cc1ccc(NC(=O)C(=O)c2cn(CC(=O)N3CCCCC3)c3ccccc23)cc1
    i, 2.9
- CCc1nc2ccccc2c(C(=O)OCC(=O)Nc2cccc(S(=O)(=O)N3CCOCC3)c2)c1C
    i, -1.1
- Cc1ccc(S(=O)(=O)N2CCN(C(=O)c3cc4c(C)nn(-c5ccccc5)c4s3)CC2)cc1
    i, -0.08
- CCOc1ccccc1-c1nc(-c2ccncc2)no1
    i, -0.7
- Cc1cc(C)c2c(c1)/C(=N\N=c1\sc3ccccc3n1C)C(=O)N2
    i, 0.25
- COc1ccc(-c2nc(C#N)c(NCCc3ccccc3)o2)cc1
    i, 0.22
- COc1ccc(CCn2c(N3CCN(Cc4ccccc4)CC3)nc3c2c(=O)[nH]c(=O)n3C)cc1
    i, 1.3
- Cc1cc(/C=N/NC(=O)c2ccc(O)cc2)c(C)n1CC(C)C
    i, -0.13
- Cc1ccc2nc(Cl)c(C3CC(c4ccco4)=NN3S(C)(=O)=O)cc2c1 (stereo not drawn)
    i, 0.05

(continued)
Order of results: KCNQ2 inh, KCNQ2 inh baseline
- Cc1ccc(N2C(=O)C3C(C2=O)C2C=CC3C23CC3)cc1 (stereo not drawn)
    i, -0.42
- CC(c1nnc(SCC(=O)Nc2sccc2C#N)n1-c1ccc(Cl)cc1)N(C)C (stereo not drawn)
    i, -0.08
- COc1ccc(Cc2nnc(SCC(=O)Nc3c(C)cccc3C)[nH]c2=O)cc1
    i, 0.31
- CN1[C@@H]2CC(OC(=O)[C@H](CO)c3ccccc3)C[C@H]1[C@@H]1O[C@@H]12 (stereo partly drawn)
    i, 0.04
- Cc1ccc(NC(=S)N(CCN2CCOCC2)Cc2cc3cc4c(cc3[nH]c2=O)OCO4)cc1
    i, 0.11
- O=C(O)c1cc(-c2ccc(/C=c3\sc4nc5ccc(Br)cc5n4c3=O)o2)ccc1Cl
    i, 14
- CS(=O)(=O)c1ccc(Cl)c(NC(=O)COC(=O)Cc2c[nH]c3ccccc23)c1
    i, -0.38
- CCCCOc1cccc(C(=O)Nc2ccc(S(=O)(=O)Nc3nnc(CC)s3)cc2)c1
    i, -2.9
- O=C(Nc1ccc(Cl)cc1)N1CCSCC1
    i, -0.99
- O=C(N/N=C/c1ccccn1)c1cc(-c2cccc3ccccc23)n[nH]1
    i, 0.68
- CCN(CC)C(=O)c1cc2c(=O)n3cccc(C)c3nc2s1
    i, 1.2
- COc1ccc(N2CCN(C(=O)c3cccc(NC4=NC5CS(=O)(=O)CC5S4)c3)CC2)cc1 (stereo not drawn)
    i, -2.6
- O=C(CSc1nnc2ccc(-c3ccccn3)nn12)Nc1ccccc1
    i, 2
- O=C(NC1CCCCC1)C1CCCN1S(=O)(=O)c1ccc(F)cc1 (stereo not drawn)
    i, -0.24
- COc1cc(NC(=O)c2cccnc2)c(Cl)cc1NC(=O)c1ccc(Cl)cc1
    i, 0.15

By substructure: the entries above with a CF3 group (four)
Order of results: KCNQ2 inh, KCNQ2 inh baseline
- O=C(c1cccc(F)c1)N1C2C=CC(C2)C1(C(F)(F)F)C(F)(F)F (stereo not drawn)
    i, -0.12
- CS(=O)(=O)N(CC(=O)N1CCCCC1)c1ccc(Cl)c(C(F)(F)F)c1
    i, 0.6
- CCOP(=O)(OCC)C(NC(=O)c1cccs1)C(F)(F)F (stereo not drawn)
    i, 0.21
- CC1CCC2=NN(C(=O)c3ccco3)C(O)(C(F)(F)F)C2C1 (stereo not drawn)
    i, 0.66

(further entries)
Order of results: KCNQ2 inh, KCNQ2 inh baseline
- CCN1CCN(C(=S)c2ccc(OCC(=O)NCc3ccccc3)cc2)CC1
    i, 0.89
- O=c1c(-c2cccc(Cl)c2)c[nH]n1-c1ccccc1
    i, -0.47
- O=C(NC(=S)N1CCN(CCO)CC1)C12CC3CC(CC(C3)C1)C2
    i, -0.13
- c1nc2ccc(Cc3ccc4nc[nH]c4c3)cc2[nH]1
    i, 0.32
- CCCCn1c(N)c(N(CCOC)C(=O)c2c(C)noc2C)c(=O)[nH]c1=O
    i, 0.7
- Cc1ccccc1C(=O)Nc1ccccc1C(=O)NCc1ccccc1
    i, 0.8
- Cc1nc(N2CCN(Cc3ccccc3)CC2)c(C#N)c2c1COC(C)(C)C2
    i, -0.62
- Cn1c(=O)c2c(nc(N/N=C/c3ccc(OC(=O)c4ccco4)cc3)n2Cc2ccc(F)cc2)n(C)c1=O
    i, 0.96
- CCOc1ccc(N(CC(=O)NC2CCCC(C)C2C)S(=O)(=O)c2c(C)noc2C)cc1 (stereo not drawn)
    i, -0.54
